# Vaccinia mCherry: inhibitors of vaccinia virus infection (mCherry reporter signal) | Vaccinia virus mCherry reporter infection, fluorescence; about a quarter of the inactives have no number | Potency, µM (highest dose often 36.5 µM), for inactives: top-dose activity change, negative = inhibition, actives largely listed as inhibitors | 0.63% of 310,000 active; active = well fitted inhibition curve with a large enough effect; inconclusive = small, poorly fitted or top-dose-only effect; inactive = no such curve, though single readings can be large or run the other way; tested in A549 cells; note: nearly all actives have a fitted effect of over 35% in size; inactives centre near -10
# Vaccinia Venus: vaccinia inhibition (Venus reporter); Vaccinia virus Venus reporter expression, fluorescence; Potency, µM (doses to about 36.5 µM), for inactives: at the top dose activity change, negative = inhibition, hits mostly inhibitors; 0.46% of 330,000 active; active means well fitted inhibition curve with a large enough effect; inconclusive means small, poorly fitted or top-dose-only effect; inactive means no such curve, though single readings can be large or run the other way; tested in A549 cells; note: nearly all actives have a fitted effect of over 30% in size; inactives centre near -10
# Active calls of the source: *; i = inactive; ? = inconclusive; nt = no result given; [ ] = remark or other dose. % is set by controls: 0 for no effect and ±100 for the full control effect; potency is the fitted concentration of half-maximal effect.
SMILES,Vaccinia mCherry,Vaccinia Venus
COc1ccc(C(=O)COC(=O)c2cc3ccccc3oc2=O)c(OC)c1,0%,7%
COC(=O)c1c(C)n(Cc2ccc3c(c2)OCO3)c2ccc(O)cc12,?,-22%
Nc1ccc(Br)cc1C(=O)O,-7%,-3%
O=C(NCc1ccco1)C(c1ccccc1)N(Cc1ccccc1)C(=O)Cn1nnc2ccccc21 (stereo unspecified),-14%,?
CCn1cc(C(=O)N2CCN(c3ccccc3)CC2)c(=O)c2cc(S(=O)(=O)N(C)C)ccc21,-3%,5%
Cn1nccc1NC(=O)CSCC(=O)O,i,-3%
CCOc1ccc(C2C(C#N)=C(N)Oc3cc(C)n(CCN4CCOCC4)c(=O)c32)cc1OCC (stereo unspecified),-14%,-8%
Cc1ccccc1-c1nc(S(=O)(=O)c2ccccc2)c(NCCN2CCOCC2)o1,-2%,-12%
CCOc1ccc(Nc2nc(Cl)nc(N3CCN(c4ccc(OC)cc4)CC3)n2)cc1,-15%,-5%
O=C(Oc1cccc(C(=S)N2CCCCC2)c1)c1ccccc1,-19%,0%
c1cnc2ccc(C(c3nnnn3C3CCCCC3)N3CCCCC3)cc2c1 (stereo unspecified),-18%,-7%
CCc1nc(SCC(=O)Nc2cc(C)on2)n[nH]1,nt,-6%
Cc1noc(C)c1NC(=O)Nc1ccc2c(c1)C(=O)N([C@H](C)CO)C[C@H](C)[C@@H](CN(C)S(=O)(=O)c1ccccc1)O2,-5%,-3%
O=C(c1ccco1)N(Cc1cc2ccccc2[nH]c1=O)CC1CCCO1 (stereo unspecified),i[1.46 µM],-5%
Cc1ccc2[nH]c(=O)cc(C(=O)OCC(=O)c3ccc(F)cc3)c2c1,i,6%
CC1CCN(c2ccccc2NC(=O)c2cc([N+](=O)[O-])ccc2N2CCOCC2)CC1,i,-18%
Cc1cc(=O)n2nc(N3CCCC(C(=O)N4CCN(c5ccccc5)CC4)C3)sc2n1 (stereo unspecified),nt,-16%
O=C(COc1ccc(C(=O)c2ccccc2)cc1)NCc1ccc(F)cc1,?,?
Cc1ccc(-n2cc(CN3CCN(Cc4nccn4C)CC3)c(-c3ccc(F)cc3)n2)cc1,-21%,?
COCCCNc1nc2ccccc2nc1NS(=O)(=O)c1cccs1,-12%,-6%
COc1ccc(CNC(=O)CN(C2CCCCC2)S(C)(=O)=O)cc1,-12%,-13%
Cc1ccc(N2C(=O)c3ccccc3C2Nc2ccccc2)nc1 (stereo unspecified),-7%,4%
O=C(O)CCCC(=O)Nc1ccccc1Br,nt,-8%
Cc1cccc(-n2c(CCc3ccccc3)nnc2SCC(=O)c2ccccc2)c1,-25%,-26%
COCC(=O)N(C)C1(c2nnnn2CCOC(=O)Nc2ccc(Cl)cc2)CCCC1,-7%,-9%
Cc1c(C(=O)NCc2ccco2)cccc1[N+](=O)[O-],-22%,-17%
CCn1c(SCC(=O)Nc2cc(OC)ccc2OC)nnc1C1CCCCC1,?,-16%
Cc1cccc(CN2CCN(c3nc4nonc4nc3NC3CC3)CC2=O)c1,i,-13%
CCOC(=O)Nc1cccc(Cl)c1C,-7%,-10%
CC(=O)N1CCOc2ccc(S(=O)(=O)N3CCC(C(=O)Nc4cc(C)ccc4C)CC3)cc21,-15%,-3%
Cc1ccc(CNC(=O)C2CCN(S(=O)(=O)c3cccs3)CC2)cc1,0%,-2%
CC1CC(C)CN(c2nc3c(c(=O)n(C)c(=O)n3C)n2CCSc2ncccn2)C1 (stereo unspecified),-5%,-6%
O=C(Nc1nnc(SCC(=O)N2CCOCC2)s1)C1CC(=O)N(c2ccccc2)C1 (stereo unspecified),i,-9%
O=C(/C=C/Nc1ccccc1)c1ccccc1,nt,-7%
COc1ccc(CNC(=O)COC(=O)C2CC2C)cc1OC (stereo unspecified),i,-17%
CC(=O)c1cccc(NS(=O)(=O)c2cc(-c3cnc(C4CC4)o3)ccc2C)c1,?,-30%
COc1cc2c(cc1OC)C(c1ccccc1)N(C(=O)c1cccc(S(C)(=O)=O)c1)CC2 (stereo unspecified),-15%,-10%
CCN(CC)c1ccc(C=Nc2cc(C)cc(C)c2)c(O)c1,i,-9%
c1ccc2c(Nc3nc(N4CCOCC4)c4ccccc4n3)cccc2c1,?,-18%
Cc1ccc(S(=O)(=O)Nc2ccc(C(OC(=O)c3ccccc3[N+](=O)[O-])(C(F)(F)F)C(F)(F)F)cc2)cc1,-20%,-29%
CN(CCc1ccccc1)C(=O)CC1C(=O)NCCN1Cc1ccccn1 (stereo unspecified),i,-2%
CCCNC(=O)c1ccc2c(c1)nc1n2CCCCC1,-12%,-6%
Cc1ccc(NC(=O)C2CC(=O)N(C(C)c3ccccc3)C2)cc1 (stereo unspecified),-6%,-15%
CCc1ccccc1NC(=O)CC(O)(C(=O)OC)C(F)(F)F (stereo unspecified),-6%,0%
CCN(CC)C(=O)CSc1nc(-c2ccccc2F)nc2c1Cc1c(CO)cnc(C)c1O2,-9%,1%
O=C(CSc1nnc(-c2ccc(F)cc2)o1)c1ccc2c(c1)OCCO2,-12%,-3%
N#Cc1nc(Cc2ccccc2)oc1NCCN1CCOCC1,-10%,0%
O=C1NC(Cc2c[nH]c3ccccc23)C(=O)N1Cc1cccc2ccccc12 (stereo unspecified),-27%,-22%
CCC1CN(Cc2cccc3nccnc23)Cc2cc(OC)ccc2O1 (stereo unspecified),-8%,5%
O=C(O)CCn1c(SCc2cc(=O)n3ccccc3n2)nc2ccsc2c1=O,9%,3%
# Further compounds
SMILES,Vaccinia mCherry,Vaccinia Venus
O=C(Nc1ccc(N2CCOCC2)cc1)c1cc2c(s1)CCCC2,-19%,-28%
COc1ccc(CNC(=O)O[C@]23C[C@H]4C(=O)N(c5ccccc5)C(=O)[C@H]4C[C@@]2(O)CN(S(=O)(=O)c2ccc(C)cc2)C3)cc1OC,i,-13%
COc1ccccc1-c1c(C)nn2c(N3CCN(Cc4ccccc4)CC3)cc(C)nc12,-8%,?
COc1ccc(C(=O)Nc2c(C(C)(C)C)nn(C)c2C(C)(C)C)cc1,i,-5%
Cc1ccc(/C=C2\C(=O)NC(=O)N(CC3CCCO3)C2=O)s1 (stereo unspecified),-8%,-12%
CCCCNC(=O)c1nc(C2CCN(S(=O)(=O)c3csc(C(=O)O)c3)CC2)oc1-c1ccccc1,i,4%
Cc1ccccc1Cn1c(CN2CCC(C(=O)NCCc3ccccc3)CC2)cc2ccccc21,-11%,-7%
COc1cc(/C=N/NC(=S)Nc2cccc(C(=O)O)c2)ccc1O,i,-5%
Cc1cc(C)cc(-n2nnnc2SCC(=O)Nc2cccc(NC(=O)c3ccco3)c2)c1,?,-27%
CCn1c(COc2cccc(OC)c2)nnc1SCC(=O)NCC1CCCO1 (stereo unspecified),i,-8%
Cn1c(=O)c2c(nc(N/N=C3\CCCc4ccccc43)n2Cc2ccc(F)cc2)n(C)c1=O,-6%,0%
O=C(OCC#CCSc1nc2ccccc2o1)c1ccco1,-11%,-14%
CCc1ccc2ncc3c(-c4ccc(C)cc4)nn(CC(=O)NCc4ccccc4)c3c2c1,0%,9%
CCc1cccc(CC)c1NC(=O)C(CC)n1nc(C)n2c(cc3cc(C)ccc32)c1=O (stereo unspecified),-18%,-15%
Cc1cc(C)n2c(Nc3ccccc3)c(-c3ccc(C)o3)nc2n1,-18%,-14%
NC(=O)CC(NC(=O)OCc1ccccc1)C(=O)O (stereo unspecified),nt,-16%
CCC1C=C(c2ccccc2)C=CN=C1N(CC)CC (stereo unspecified),0%,-15%
CC(C)[C@@H](C(=O)OCC(=O)c1ccc2c(c1)NC(=O)CO2)N1C(=O)c2ccccc2C1=O,i,-7%
CN(C(=S)Nc1ccccc1)c1ccccc1,-8%,-7%
CCNC(=S)N1CCN=C1Nc1nc(C)cc(C)n1,-11%,-3%

# Exported tab-delimited: entries from further up
SMILES	Vaccinia mCherry	Vaccinia Venus
O=C(O)CCn1c(SCc2cc(=O)n3ccccc3n2)nc2ccsc2c1=O	9%	3%
O=C(Nc1ccc(N2CCOCC2)cc1)c1cc2c(s1)CCCC2	-19%	-28%
COc1ccc(CNC(=O)O[C@]23C[C@H]4C(=O)N(c5ccccc5)C(=O)[C@H]4C[C@@]2(O)CN(S(=O)(=O)c2ccc(C)cc2)C3)cc1OC	i	-13%
COc1ccccc1-c1c(C)nn2c(N3CCN(Cc4ccccc4)CC3)cc(C)nc12	-8%	?
COc1ccc(C(=O)Nc2c(C(C)(C)C)nn(C)c2C(C)(C)C)cc1	i	-5%
Cc1ccc(/C=C2\C(=O)NC(=O)N(CC3CCCO3)C2=O)s1 (stereo unspecified)	-8%	-12%
CCCCNC(=O)c1nc(C2CCN(S(=O)(=O)c3csc(C(=O)O)c3)CC2)oc1-c1ccccc1	i	4%
Cc1ccccc1Cn1c(CN2CCC(C(=O)NCCc3ccccc3)CC2)cc2ccccc21	-11%	-7%
COc1cc(/C=N/NC(=S)Nc2cccc(C(=O)O)c2)ccc1O	i	-5%
Cc1cc(C)cc(-n2nnnc2SCC(=O)Nc2cccc(NC(=O)c3ccco3)c2)c1	?	-27%
CCn1c(COc2cccc(OC)c2)nnc1SCC(=O)NCC1CCCO1 (stereo unspecified)	i	-8%
Cn1c(=O)c2c(nc(N/N=C3\CCCc4ccccc43)n2Cc2ccc(F)cc2)n(C)c1=O	-6%	0%
O=C(OCC#CCSc1nc2ccccc2o1)c1ccco1	-11%	-14%
CCc1ccc2ncc3c(-c4ccc(C)cc4)nn(CC(=O)NCc4ccccc4)c3c2c1	0%	9%
CCc1cccc(CC)c1NC(=O)C(CC)n1nc(C)n2c(cc3cc(C)ccc32)c1=O (stereo unspecified)	-18%	-15%
Cc1cc(C)n2c(Nc3ccccc3)c(-c3ccc(C)o3)nc2n1	-18%	-14%
NC(=O)CC(NC(=O)OCc1ccccc1)C(=O)O (stereo unspecified)	nt	-16%
CCC1C=C(c2ccccc2)C=CN=C1N(CC)CC (stereo unspecified)	0%	-15%
CC(C)[C@@H](C(=O)OCC(=O)c1ccc2c(c1)NC(=O)CO2)N1C(=O)c2ccccc2C1=O	i	-7%
CN(C(=S)Nc1ccccc1)c1ccccc1	-8%	-7%
CCNC(=S)N1CCN=C1Nc1nc(C)cc(C)n1	-11%	-3%

# Next part
SMILES,Vaccinia mCherry,Vaccinia Venus
Cc1cccc(C)c1NC(=O)CS(=O)CC(=O)N1CCN(c2ccccc2)CC1 (stereo unspecified),21%,1%
COc1ccccc1CCc1nnc(CCC(=O)NC(C)Cc2cccc(C)n2)o1 (stereo unspecified),i,-6%
Cc1ccc(-n2ncc(C#N)c2/N=C/N2CCOCC2)cc1,i,-20%
Cc1cccc(COC[C@H](Cc2ccccc2)N2CCN(C(=O)c3cc(Cl)cc(Cl)c3)CCC2=O)c1,-9%,-13%
CCCc1nc2cc(C)c(Br)c(C)n2c1Cc1ccc(OC)cc1C,i,-5%
CC(/C=N/NC(=O)CSc1ccccn1)=C\c1ccc(C(C)C)cc1,-13%,-4%
Cc1ccc(OCC(=O)NNC(=O)C2CSC3(C)CCC(=O)N23)cc1C (stereo unspecified),-14%,-13%
COc1c(C)cc(C(=O)C2CCCN(C(=O)c3ccc4cc[nH]c4c3)C2)cc1C (stereo unspecified),-12%,-17%
COc1cccc(C(=O)OCC(=O)N2CCc3ccccc3C2)c1,?,20%
O=c1c2cc(Br)ccc2nc(-c2ccccc2)n1O,i,-27%
CCNC(=S)N1CCN(S(=O)(=O)c2ccc(C)c(C)c2)CC1,i,-11%
Cc1cc(C)c(S(C)(=O)=O)c(Oc2ccccc2C)n1,-4%,-5%
CN1CCN(CCCNC(=O)c2cnn(-c3ccccc3)c2C2CCN(C(=O)OC(C)(C)C)CC2)CC1,-17%,-11%
CC(O)(c1cccnc1)c1nc(/C=C/c2ccccc2)cs1 (stereo unspecified),-24%,-11%
O=C(COC(=O)c1cc[n+]([O-])cc1)Nc1c(Cl)cccc1C(F)(F)F,i,-14%
O=C(O)CN1C(=O)Nc2ccc(Br)cc2C1c1ccccc1 (stereo unspecified),nt,3%
CSC1=N/C(=C\C=C\c2cccs2)C(=O)S1,-23%,-7%
O=C(COc1ccccc1Br)c1ccc(O)cc1O,-24%,-4%
Cc1ccc([N+](=O)[O-])cc1NC(=O)c1ccoc1C,-7%,-7%
CC(C)C[C@H]1CNC(=S)N1CC1CCCN1C[C@H](CC(C)C)N1C[C@H](Cc2ccc(O)cc2)N(CC2CCCCC2)C1=S (stereo partly specified),?,?
CC(C)(Oc1ccc(Cl)cc1)C(=O)Nc1ccc2oc(=O)ccc2c1,-4%,-8%
CC(=O)/C(=C/c1ccc(N(C)C)cc1)C(=O)c1ccccc1,-2%,-3%
CCCNc1ncccc1C(N)=O,-11%,-8%
Cc1ccc(Cl)c2sc(N3CCN(C(=O)C4CC4)CC3)nc12,-8%,-4%
CC(C)CCSc1cc(NCCO)c([N+](=O)[O-])c2nonc12,-12%,-27%
O=C(CN1C(=O)CCSc2ccccc21)Nc1ccc(C(F)(F)F)cc1,-5%,-17%
C=CCc1cccc2cc(C(=O)NC3CCCC3)c(=O)oc12,1%,2%
CC1CC(O)C(C)CN1 (stereo unspecified),-12%,-7%
CCOC(=O)NC(=O)c1cn(Nc2ccccc2)c(=O)[nH]c1=O,-11%,-6%
Oc1c(C(c2ccccc2Cl)N2CCCC2)sc2nc(-c3ccco3)nn12 (stereo unspecified),-17%,-14%
CCOc1ccccc1NC(=O)C1CCN(C(=O)Cc2ccccc2)CC1,-20%,-4%
COc1cc(NC(=O)CSc2nc3ccccc3cc2C)c(C(=O)O)cc1OC,-9%,-1%
Cc1cccnc1NS(=O)(=O)c1ccccc1,-24%,-16%
CC12CCC(C(=O)N(Cc3ccccc3)Cc3ccccc3)(OC1=O)C2(C)C (stereo unspecified),nt,-10%
Cc1nnc(SCc2ccccc2)n(N)c1=O,-5%,2%

# Assay outcomes: PubChem, National Center for Advancing Translational Sciences (NCATS)

# Outcome played no part in choosing rows. About 0.87% of those tested had a hit in this group.
